# Screening data: PubChem, several laboratories
# Bead autofluor = flagged as autofluorescent in microsphere protease counterscreen; 360,000 tested, 3.1% active; compound autofluorescence counterscreen, microsphere flow cytometry; active compounds read high; AID 624483; fluorescence intensity (test concentration not listed);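 active = at least 3 SD above the mean of all compounds, about 16000 in these data; inconclusive = too few beads counted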;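 also: 100 nL of 1 mM stock went into each well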
# RN4220 kill = growth inhibition of S. aureus RN4220, primary screen, OD600. inhibition, % (no concentration beside the values). AID 1259311, 2017. 330,000 tested, 0.33% active. 16 h;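 active = z-score of -3 or lower and OD600 up to 0.18 on both plates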;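 also: plate controls were untreated cells for no effect and reference antibiotic for full effect; stock transfer was 100 nL into about 80 µL; one replicate is shown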
# Mtb hypoxia rep = PubChem AID 1159583 | M. tuberculosis hypoxia-regulated fluorescent reporter, fluorescence | fluorescence inhibition, % (concentration not given with the values) | 300,000 tested, 0.1% active;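 active = 35 to 45% if threefold the growth effect, above 45% if 1.5-fold the growth effect; inactive = the rest, general growth blockers included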;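 also: wells of about 50 µL received 100 nL stock; 0% = vehicle wells and 100% = reference inhibitor wells; whole bacteria with a GFP reporter of the hypoxia response; strong numbers were not always called active; many hits fall short of the cut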
# PrP 5UTR inh = inhibition of PrP 5' UTR reporter expression. cell-based PrP 5' UTR mRNA reporter, plate reader. AID 488862, 2010. inhibition, % (no concentration beside the values). 340,000 tested, 0.35% active;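 active = every replicate at 50% or more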;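 also: 0 = median of the neutral control wells; tested in H4 reporter cells; numbers are from one replicate; inactives centre near -14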
# ugtP null kill = growth inhibition of ugtP-null S. aureus, primary screen, RN4220 ugtP deletion, OD600. 16 h; some inactives read as strong as hits. growth inhibition, % (test concentration not listed). 330,000 tested, 0.54% active;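 active = z-score under -3 and OD600 up to 0.15 on both plates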;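 also: plate controls were untreated wells for no effect and antibiotic for full effect; wells of about 80 µL received 100 nL stock; the first replicate is given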
# BJeLR lethal = MLPCN primary cell-based screen for lethality selective to Ras in HRASV12 cells; BJeLR (HRASV12) viability, CellTiter-Glo ATP luminescence, 48 h; reference of the scale not given here; AID 1554, 2009; 300,000 tested, 0.17% active; inhibition, % (no concentration beside the values);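 active = replicate mean above 50%; inconclusive = above 50% but judged a plate artefact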;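 also: 50 nL library stock added to about 25 µL; numbers are from one replicate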
# Mtb hypoxia rep growth = also measured in Mtb hypoxia rep; calls as there; growth inhibition, %; measured here: M. tuberculosis growth (absorbance);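 0% = vehicle and 100% = reference antibiotic; read after six days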
# Numbers without * were called inactive; ? = inconclusive; · = no result given.
# Start of the listing, in advance:
structure	ugtP null kill	Bead autofluor	RN4220 kill	Mtb hypoxia rep	PrP 5UTR inh	BJeLR lethal	Mtb hypoxia rep growth
CC(NC(=O)COc1ccc(C=NNC(=O)C(=O)Nc2ccccc2Br)cc1)c1ccccc1 (centres undefined)	-13	·	-1.9	12	·	·	10
CC(=NNC(=O)c1cc(C)oc1C)c1ccc(Br)s1	-2	2961	0.3	3	-9	·	-5
COc1ccc(NC(=O)C2CCCN(C(=O)NC3CCCCC3)C2)cc1OC (centres undefined)	10	?	4.8	20	-22	2	5
CCN1C(=O)[C@H]2[C@H]3CN=C(SCc4ccc(C)cc4)N3[C@@](CC)(C(=O)OC)[C@H]2C1=O	-6	2860	2.7	-7	4	·	2
COc1ccccc1-n1cc(-c2ccc(C)cc2)[nH]c1=S	8	5683	4.9	5	-23	17	7
COc1ccc(NS(=O)(=O)c2cc(C(=O)N3CCCCCC3)ccc2C)cc1	1	4020	0.9	5	3	·	7

# The listing, repeating the preview:
structure	ugtP null kill	Bead autofluor	RN4220 kill	Mtb hypoxia rep	PrP 5UTR inh	BJeLR lethal	Mtb hypoxia rep growth
CC(NC(=O)COc1ccc(C=NNC(=O)C(=O)Nc2ccccc2Br)cc1)c1ccccc1 (centres undefined)	-13	·	-1.9	12	·	·	10
CC(=NNC(=O)c1cc(C)oc1C)c1ccc(Br)s1	-2	2961	0.3	3	-9	·	-5
COc1ccc(NC(=O)C2CCCN(C(=O)NC3CCCCC3)C2)cc1OC (centres undefined)	10	?	4.8	20	-22	2	5
CCN1C(=O)[C@H]2[C@H]3CN=C(SCc4ccc(C)cc4)N3[C@@](CC)(C(=O)OC)[C@H]2C1=O	-6	2860	2.7	-7	4	·	2
COc1ccccc1-n1cc(-c2ccc(C)cc2)[nH]c1=S	8	5683	4.9	5	-23	17	7
COc1ccc(NS(=O)(=O)c2cc(C(=O)N3CCCCCC3)ccc2C)cc1	1	4020	0.9	5	3	·	7
COc1cccc2cc(C(=O)NCc3ccco3)c(=O)oc12	4	2540	4.1	12	-8	6	4
Cc1cc(Nc2ccc(C(=O)O)cc2)nc(N)n1	-1	·	5.1	12	-2	2	6
CCN(CC)S(=O)(=O)c1cccc(C(=O)N2CC(O)CC2C(=O)O)c1 (centres undefined)	-2	3181	-6.2	4	-14	-6	8
O=C1COc2ccc(C(=O)NC3CC3)cc2N1	2	4699	7.9	-1	-5	4	7
COc1ccc(C(=O)/C=C(\C)Nc2ccc3c(c2)OCO3)cc1	9	9946	4.4	-7	-65	-8	-11
COC(=O)c1ccc(NC(=O)Cn2cnc3c(nnn3-c3cccc(OC)c3)c2=O)cc1	-6	4503	7.1	-3	11	-9	-4
O=C(Nc1ccc2cn[nH]c2c1)c1c(Cl)cccc1Cl	1	2019	0.3	3	-1	-7	-5
COc1cccc(NC(=O)CN(C)C(=O)c2sc3cc(Cl)ccc3c2Cl)c1	-3	·	-8.0	8	4	-4	0
CC(CCc1ccccn1)(CCc1ccccn1)C(=O)c1ccccc1	-8	3940	4.3	10	-21	·	3
CC(=O)Nc1ccc(Nc2nc3c(S(=O)(=O)c4ccc(C)c(C)c4)nnn3c3ccccc23)cc1	10	2339	-0.5	-4	-4	-7	-4
COc1cc(OC)cc(C(=O)N2CCN(Cc3cccc(F)c3)CC2)c1	5	?	0.7	4	-2	-1	0
CN(C)S(=O)(=O)c1ccc(/C(O)=C2/C(=O)C(=O)N(CCN3CCCCC3)C2c2cccnc2)cc1 (centres undefined)	2	5441	4.8	6	-10	·	6
Cc1c(C(=O)O)cccc1N1C(=O)Nc2ccccc2N1O	2	2576	2.1	-4	-13	2	0
CC(=O)/C(=N/Nc1cccc(C)c1)N1CCOCC1	·	3917	·	·	-14	2	·
Cc1nn(CCOc2cccc(Cl)c2)c(C)c1[N+](=O)[O-]	-3	4418	5.5	11	-12	-11	-1
O=C(NCc1ccco1)c1ccc(S(=O)(=O)N2CCOCC2)cc1	-10	4058	5.9	4	-3	4	10
CC(=O)Nc1cccc(NC(=O)C2CC(=O)N(c3ccc(C)cc3)C2)c1 (centres undefined)	9	6092	4.0	4	-12	-1	3
Cc1nc(NC(=O)c2cccc(Cl)c2)sc1C(=O)N1CCCCC1	10	4516	3.0	-2	-78	2	6
O=C(CCCSc1ccc(Cl)cc1)Nc1cc(S(=O)(=O)N2CCOCC2)ccc1O	-9	3728	2.1	18	-18	·	41
O=S(=O)(N=C(c1ccccc1F)N1CCCCC1)c1ccccc1	-6	·	4.3	8	·	·	12
Nc1ccc(C(=O)OCc2csc(-c3ccccc3)n2)cc1[N+](=O)[O-]	·	2559	·	·	-4	2	·
C=CCn1c(O)c(C=Nc2ccc(CN3CCCCC3)cc2)c(=O)[nH]c1=S	3	5592	0.4	7	·	10	6
COc1ccccc1N1CCN(S(=O)(=O)c2ccc(F)cc2)CC1	1	15571	0.0	-1	-5	-6	2
COc1ccc(C(c2nnnn2Cc2cccs2)N2CCC(C(N)=O)CC2)c(OC)c1 (centres undefined)	-2	4851	-2.1	·	-14	4	·
Cc1ccnc(NS(=O)(=O)c2ccc(NC(=O)c3ccc4c(c3)OCCO4)cc2)n1	1	3228	-3.1	15	-25	5	19
COc1ccc(OC(=O)c2cnc3n(c2=O)CCS3)cc1	-3	3878	4.4	-4	-15	1	8
COC(=O)c1ccc(OCC(=O)NC2CCCCCC2)cc1	4	6277	2.1	5	-10	-8	4
Cc1ccc(SCC(=O)NC(=O)c2ccc(S(=O)(=O)N(C)C)cc2)cc1C	19	1937	6.9	12	-9	-1	7
Cc1ccc(N2C(=O)N3C(c4ccc(Cl)cc4)C4C(=O)N(C5CCCCC5)C(=O)C4[C@]3(Cc3ccccc3)C2=O)cc1 (some centres undefined)	-6	·	4.8	-3	·	·	9
O=C(CC(=O)N/N=C\c1ccc([N+](=O)[O-])cc1)NCCc1ccccc1	·	4982	·	·	1	3	·
CC(C)CC(NC(=O)OC(C)(C)C)C(=O)O (centres undefined)	-3	4655	2.2	12	-6	1	0
CC1CCCC(C)N1C(=O)CSc1nnc(NC(=O)c2cccs2)s1 (centres undefined)	1	8366	3.2	14	-27	5	6
Cn1c(CNc2nc(-c3ccccc3)cs2)nnc1SCC(=O)c1ccccc1	-8	4643	-7.1	·	-23	-3	·
COc1ccc(S(=O)(=O)Nc2c(C)n(C)n(-c3ccccc3)c2=O)cc1C(=O)O	-3	4190	1.4	10	-43	-1	-4
C/C=C/C(=O)Nc1nnc(C2CCCCC2)s1	8	4536	-0.4	11	-37	-4	6
CSc1sc(C(=O)N2CCc3ccccc32)cc1S(=O)(=O)C(C)C	2	5147	0.4	-1	-12	1	4
Cc1ccc(C2CC(c3cccc(Br)c3)Nc3nnnn32)cc1 (centres undefined)	-12	3166	6.9	0	-15	1	8
Cc1ccc2cc(CCNS(=O)(=O)c3ccc(Br)cc3)c(=O)[nH]c2c1C	0	4337	12	4	-26	-2	-2
CN(C(=O)CN1C(=O)c2cccc(N)c2C1=O)C1CCCCC1	6	4112	2.4	12	-6	·	19
COc1ccc(CC(=O)O/N=C(\N)Cc2ccc(OC)cc2)cc1	3	4709	-0.1	-1	-7	-10	3
N#CCOC(=O)C1CSC2(c3ccc(Br)cc3)CCC(=O)N12 (centres undefined)	14	4084	-0.1	5	-27	-5	3
CCC(=O)Nc1ccc(C(=O)CN2C(=O)NC3(CCOc4ccccc43)C2=O)cc1 (centres undefined)	11	5184	6.2	5	-4	·	2
Cc1ccc2cccc(S(=O)(=O)NC3CCS(=O)(=O)C3)c2n1 (centres undefined)	4	11083	1.1	11	-14	6	11
O=C(c1ccc(Cl)cc1)N1CCC(C(=O)N2CCCc3ccccc32)CC1	3	6247	0.6	6	-6	-3	-1
C=C(NC(C)=O)c1c(F)cccc1F	2	4174	7.2	7	-8	·	4
COc1ccc(C(=S)N2CCCC2)cc1C	6	4282	9.1	12	-48	3	12
O=C(O)c1cccc(NN=Cc2ccc(F)c(F)c2)c1	3	·	-3.8	7	·	·	2
O=C(COC(=O)c1cccc(OC(F)F)c1)Nc1cccc(S(=O)(=O)N2CCCC2)c1	8	3030	5.4	-3	-21	·	-6
CN(CC(=O)Nc1cccc(F)c1)CC(=O)Nc1ccccc1[N+](=O)[O-]	-1	4071	-5.1	-9	-23	·	12
COc1ccc(/C=N/NC(=O)C(=O)N2CCCCCC2)cc1[N+](=O)[O-]	·	5488	·	·	6	-2	·
COc1ccccc1NC(=O)C(C)OC(=O)CCCOc1ccccc1 (centres undefined)	9	?	2.9	0	-2	-4	-1
Cn1c(SCC(=O)NNC(=O)c2ccccc2)nnc1C(F)(F)F	-6	5812	-2.8	13	-5	·	7
Cc1cc(-c2nc(C)c(C(=O)NN)s2)no1	2	4632	2.0	-3	-15	-12	-2
CC(=O)N(C)C1(c2nnnn2CCOC(=O)Nc2cccc3ccccc23)CCCC1	-2	2840	-10	16	-42	-4	7

# Next structures:
structure	ugtP null kill	Bead autofluor	RN4220 kill	Mtb hypoxia rep	PrP 5UTR inh	BJeLR lethal	Mtb hypoxia rep growth
Cc1cccc(NC(=S)NNC(=O)c2ccco2)c1	-7	9510	-1.8	1	-10	-1	-10
CC1(C)C2([N+](=O)[O-])CN(CCO)CC1([N+](=O)[O-])CN(CCO)C2	-1	2483	1.8	-14	0	-5	-5
CCOC(=O)c1cc(C)sc1NC(=O)CSc1nnnn1C	5	5741	4.0	4	-10	0	3
NC(=S)Nn1c(CCC(=O)O)ccc1-c1ccccc1	6	2026	0.1	2	1	2	3
Cc1cc(C(=O)NCc2csc(-c3ccccc3)n2)no1	7	6320	13	2	-4	5	2
NNC(=S)Nc1ccccc1Cl	·	4139	·	·	-41	-4	·
CC(C)(C)NC(=O)NC(=O)CN1CCN(C(c2ccccc2)c2ccccc2)CC1	7	4376	0.6	11	-30	·	10
COc1cccc(C(=O)NCC(c2cccs2)N2CCc3ccccc32)c1 (centres undefined)	1	4546	-1.9	-3	4	12	-12
COc1cc2c(cc1OC)C(C)N(S(=O)(=O)c1cnc(Cl)c(Cl)c1)CC2 (centres undefined)	11	5789	7.3	-8	-12	6	-3
CCc1ccc(Nc2n[n+](-c3ccccc3)c(-c3c(Cl)cccc3Cl)s2)cc1	100*	2981	100*	·	-12	30	·
O=C(NC1CC1)C1=C[C@@H](c2ccc3c(c2)OCO3)C[C@@H](OCc2ccc(CO)cc2)O1	·	3594	·	·	-12	-5	·
O=C(Nc1nc(-c2cc(Cl)sc2Cl)cs1)c1ccccc1	68	6304	44	4	-44	-6	8
COc1ccccc1-c1nnc(-c2ccc(N3CCOCC3)cc2)o1	-19	3517	5.7	5	-85	-5	13
COc1cccc(NC(=O)CN(C)C(=O)CNC(=O)c2sc3ccccc3c2Cl)c1	-1	3900	-0.1	-5	-41	·	6
COc1ccc(S(=O)(=O)N2CCOC2CNC(=O)C(=O)NCc2ccco2)cc1OC (centres undefined)	1	4668	2.5	11	-21	-10	5
CCOc1ccc(N2CC(C(=O)Nc3nnc(Cc4ccc(OC)c(OC)c4)s3)CC2=O)cc1 (centres undefined)	5	5792	-7.8	9	-52	14	5
Cn1c(Cc2ccccc2)nnc1SCC(=O)Nc1ccccc1	2	7070	6.7	-2	-29	-7	14
CN(CC(=O)NCc1ccccc1Cl)S(=O)(=O)c1ccc2c(c1)n(C)c(=O)c(=O)n2C	12	8388	1.7	11	-19	8	5
COc1ccccc1CNC(=O)Cn1cccc1	-7	4812	-0.2	4	-17	-5	1
COc1ccc(NS(=O)(=O)c2cc(N)ccc2N2CCOCC2)cc1	6	3033	-0.9	6	-25	-5	3
Cc1ccc(-n2ncc3c2CC(C)(C)CC3NC(=O)CCc2cnn(C)c2)cc1 (centres undefined)	1	5810	0.6	-1	18	-2	13
COc1ccc(S(=O)(=O)N[C@@H](Cc2ccccc2)C(=O)N2CC[C@@]3(O)CCCC[C@H]3C2)cc1	8	3662	3.2	·	-8	-4	·
